# Compound activity (PubChem)
# Rango complex inh = prevents formation of the Rango-importin beta complex | Q14974 | Rango CFP/YFP FRET sensor + importin beta, 45 min | Potency, µM (top dose mostly 92.2 µM), inactives show at the highest dose inhibition of complex formation | 340,000 compounds, 0.031% hits | AID 540263; active = rising FRET ratio curve, often small or poorly fitted; inconclusive = mostly compound fluorescence or quenching in the first reads; inactive = flat curves in all reads;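 note: potency is the fitted concentration of half-maximal effect; 0% = DMSO wells and 100% = buffer wells lacking importin beta; nearly all actives have a fitted effect of over 15% in size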
#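 FRET biosensor (snurportin 1 IBB flanked by EYFP and cerulean), 50 nM, with compound 5 min, then 0.125 microM importin beta in PBS, 1 mM DTT, 0.02% Tween-20, 0.1% BSA. CFP/YFP ratio read after 45 min at room temperature; pre-read flags interference.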
# Rango release inh = prevents RanGTP from dissociating the Rango-importin beta complex | O95149+P62826 | Biochemical FRET Rango-importin beta, RanGTP-induced dissociation | Potency, µM (highest dose often 46.1 µM), inactives show at the highest dose activity change, negative = inhibition | 340,000 compounds, 0.071% hits; active means falling FRET ratio curve, often poorly fitted, with flat reads before Ran was added; inconclusive means other falling curves, or compound fluorescence or quenching; inactive means flat or rising ratio curve;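 note: potency is the fitted concentration of half-maximal effect; % of control where 0% means no effect; nearly all actives have a fitted effect of over 45% in size; -100% = wells without RanGTP and RCC1; the record marks most hits as doubtful in a second field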
#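 Recombinant Rango FRET biosensor (EYFP–snurportin 1 IBB–cerulean CFP10) at 0.1 uM premixed with 0.25 uM importin beta in PBS, 1 mM DTT, 0.02% Tween-20, 0.1% BSA. Compound added 5 min; RanGTP-RCC1 (0.6 uM Ran, 2 mM GTP, 0.2 uM RCC1) then triggers release, read at 45 min.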
# miR-21 FLuc = miR-21 reporter, rising signal; AID 2288; HeLa miR-21 FLuc reporter, luciferase, 48 h; Potency, µM (titrated, usually from 38.3 µM), without a hit: at the top dose reporter change, positive = more light; 340,000 tested, under 10 active; active = well fitted rising curve with a large enough effect; inconclusive = small, poorly fitted or top-dose-only effect; inactive = no such curve, though single readings can be large or run the other way;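 note: % of control where 0% means no effect; miR-21 action dims this reporter so a rising signal means less miR-21 action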
#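 HeLa miR-21-FLuc reporter line, endogenous miR-21; 2000 cells/well in DMEM/10% FBS; compound titration up to ~40uM final, 48 h, 37 degree Celsius; luciferase detection reagent, 15 min lysis, CCD luminescence.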
# GLA inh pH 4.5 = inhibitors of human alpha-galactosidase A at pH 4.5; purified enzyme, 4-MU-alpha-Gal fluorescence, pH 4.5; activity change, negative = inhibition, % at 105 µM; 230,000 tested, under 10 active; inconclusive = small, poorly fitted or top-dose-only inhibition, or a rising curve; inactive = flat fitted curve, though single readings scatter; no compound was filed as active;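 note: 0% = full activity with enzyme and -100% = basal without enzyme; dose as in the result columns while the protocol names 77 µM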
# Target sequence (P06280 whole entry, looked up): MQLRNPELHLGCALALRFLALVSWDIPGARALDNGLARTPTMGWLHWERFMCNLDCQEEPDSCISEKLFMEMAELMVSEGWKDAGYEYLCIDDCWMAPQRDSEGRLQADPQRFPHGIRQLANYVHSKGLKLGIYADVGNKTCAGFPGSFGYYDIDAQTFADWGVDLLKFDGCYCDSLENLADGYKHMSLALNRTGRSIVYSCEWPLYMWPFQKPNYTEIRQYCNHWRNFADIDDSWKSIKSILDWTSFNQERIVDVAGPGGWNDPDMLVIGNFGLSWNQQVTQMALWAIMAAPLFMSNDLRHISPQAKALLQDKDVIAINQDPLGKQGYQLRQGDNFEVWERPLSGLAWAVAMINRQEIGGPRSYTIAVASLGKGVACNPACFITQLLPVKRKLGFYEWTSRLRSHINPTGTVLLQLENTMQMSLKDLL
# An asterisk follows results filed as active; ? = inconclusive; / = no result given; & = joins results of further samples.
structure,Rango complex inh,Rango release inh,miR-21 FLuc,GLA inh pH 4.5
O=C(CNC(=O)c1cncc(Br)c1)Nc1ccc(F)c(F)c1F,1.6%,-13%,0%,/
NC(=O)CC(NC(=O)c1ccccc1)c1ccc(NC2CCCCC2)c([N+](=O)[O-])c1 (configuration not stated),1.5%,30%,-26%,9
Cc1sc2c3ccsc3ccc2[n+]1C,-0.8%,-8%,4%,0
CS(=O)(=O)N1CCC(C(=O)Nc2cccc(Cl)c2)CC1,-0.2%,33%,-2%,2
CCOC(=O)C1CCN(C(=O)CCCn2nc(CC)n3c(cc4occc43)c2=O)CC1,-0.2%,1%,-16%,/
CCOC(=O)N1CCN(S(=O)(=O)c2cc(OCC(=O)NC3CCCCC3)c(C)cc2Cl)CC1,-0.2%,3%,17%,-1
Cc1ccc(C(=O)N2[C@@H]3CN(C)C(=O)[C@@]2(C)[C@H]2C(=O)N(C)C(=O)[C@@H]32)cc1,?,42%,/,/
O=C(O)CNC(=O)/C=C/c1c(Cl)cccc1Cl,3.7%,-1%,-1%,-1
COC(=O)C1CCN(C(=O)c2ccc(Cl)c(S(=O)(=O)NCc3cccnc3)c2)CC1,5.9%,3%,-1%,-12
CN1CCN(c2ccc(-c3ccc4ccccc4n3)cc2)CC1,-0.1%,1%,?,3
O=C(COc1ccc(Cl)cc1)Nc1ccccc1C(=O)NCc1ccco1,-2.3%,12%,-26%,-8
CCC(C(=O)Nc1cc(C(=O)O)ccc1C)c1ccccc1 (configuration not stated),0.8%,-16%,-1%,0

# Continued, overlapping the part above by 5 compounds.
structure,Rango complex inh,Rango release inh,miR-21 FLuc,GLA inh pH 4.5
O=C(O)CNC(=O)/C=C/c1c(Cl)cccc1Cl,3.7%,-1%,-1%,-1
COC(=O)C1CCN(C(=O)c2ccc(Cl)c(S(=O)(=O)NCc3cccnc3)c2)CC1,5.9%,3%,-1%,-12
CN1CCN(c2ccc(-c3ccc4ccccc4n3)cc2)CC1,-0.1%,1%,?,3
O=C(COc1ccc(Cl)cc1)Nc1ccccc1C(=O)NCc1ccco1,-2.3%,12%,-26%,-8
CCC(C(=O)Nc1cc(C(=O)O)ccc1C)c1ccccc1 (configuration not stated),0.8%,-16%,-1%,0
CCCOc1ccc(C2c3c(oc4cc(C)c(C)cc4c3=O)C(=O)N2CCCN(C)C)cc1OCC (configuration not stated),-1.8%,-16%,-2%,0
CC(C)(Oc1ccc(Cl)cc1)C(=O)NCC1CCCO1 (configuration not stated),-0.5%,-8%,/,/
CCN1C(=O)/C(=C2/C=Cc3ccccc3N2CC)SC1=S,0.1%,23%,-21%,-3
COc1ccc(Cl)cc1NC(=O)CN1CCC(n2nnc3cc(C)ccc32)CC1,2.6%,-9%,1%,-5
CCn1cc(C(=O)O)c(=O)c2cnc(N3CCN(C(=S)NC(=O)c4ccc(F)c(F)c4)CC3)nc21,-2.4%,5%,-3%,/
Cc1nn(-c2ccccc2)nc1C(=O)NNC(=O)c1cccc2ccccc12,-0.2%,4%,-5%,4
COc1cc(OC)c(NC(=O)C(=O)CC(=O)c2ccc(C)cc2C)cc1Cl,?,?,0%,3
CCN(CC)c1nc2c(c(=O)[nH]c(=O)n2C)n1CCCc1ccccc1,2.0%,23%,2%,/
Cc1cc(C)cc(NC(=O)Cn2nnc(C(=O)NCc3ccc(F)cc3)c2N)c1,-2.3%,-2%,0%,/
C=CCn1c(SCC(=O)Nc2nc(C)cs2)nnc1C(CO)NC(=O)c1ccccc1 (configuration not stated),-1.3%,-8%,1%,-5
CC(C)C(C(=O)Nc1ccc2c(c1)OCO2)N1C(=O)c2ccccc2C1=O (configuration not stated),-0.1%,1%,0%,-7
Cc1ccc(NC(=O)C2CCN(S(C)(=O)=O)CC2)cc1,0.6%,0%,-5%,5
O=C1CSCc2nc3ccccc3n21,6.8%,-11%,/,/
COc1ccc(CNC(=O)C2(CC3CC(c4ccccc4)=NO3)CCN(C(=O)c3cccc(O)c3)CC2)cc1 (configuration not stated),-2.3%,-17%,/,/
c1ccc(Cn2c(-c3ccco3)nc3nc4ccccc4nc32)cc1,?,?,-46%,17
CCC(C)n1c(S(=O)(=O)O)nc2ccccc21 (configuration not stated),-0.2%,-10%,-2%,10
COc1ncnc(OC)c1S(=O)(=O)Nc1ccc(C(F)(F)F)cc1,-1.1%,-9%,-9%,/
COc1cc(/C=N/Nc2ccccn2)ccc1O,-0.4%,-7%,-53%,-5
Cc1cc(C)c(NC(=O)CCCC(=O)O)c(Cl)c1,0.3%,-10%,-2%,-5
O=C(Nc1ncccc1O)c1ccc2ccccc2c1,-2.4%,-1%,18%,/
COc1ccc(N(CC2CO2)S(=O)(=O)c2ccccc2)cc1 (configuration not stated),2.5%,-9%,-1%,3
Cc1[nH]c2ccccc2c1SCC(=O)Nc1nccs1,-0.5%,-4%,-5%,-3
CN(C)CCNC(=O)c1nn(C)c2c1CCc1ccccc1-2,0.2%,2%,-4%,/
CCOc1ccc(Nc2nc(N)c([N+](=O)[O-])c(NCc3ccccc3)n2)cc1,8.8%,-3%,-45%,-2
COc1cccc(CN(C)C(=O)C23CC4CC(CC(NC(C)=O)(C4)C2)C3)c1OC,1.1%,-3%,-2%,/
Nc1nc(N)nc(-c2ccc([N+](=O)[O-])o2)n1,-2.5%,-14%,/,/
Cn1nc(-c2ccccc2)cc1NS(=O)(=O)c1ccc(C#N)cc1,-5.0%,29%,-1%,8
CCOC(=O)c1ccc(N(CC(=O)NC2CCCCC2)C(=O)CNC(=O)c2ccco2)cc1,1.2%,32%,-1%,/
CC(C)Oc1ccc(C(=O)/C(=C\c2cccs2)c2nc3ccccc3o2)cc1,1.9%,12%,-17%,-4
Cc1cccc(C(=O)NNC(=O)c2ccco2)c1O,6.2%,12%,/,/
O=C1c2ccccc2-c2c1cccc2C(=O)N(CCO)CCO,-0.8%,21%,-4%,1
Cc1cccc(NC(=O)C2C(c3ccccc3)C2(Cl)Cl)c1C (configuration not stated),0.0%,2%,-3%,-10
N#Cc1nc(N)nc(N(c2ccccc2)c2ccccc2)n1,-0.1%,16%,1%,-7
CNC(=S)N1CCN(C(=O)C2CCCO2)CC1 (configuration not stated),4.4%,-20%,-1%,4
CC(CN1CCOCC1)OC(=O)c1ccc(Br)cc1 (configuration not stated),-0.9%,-3%,-1%,1
O=C(OCCN1CCN(C2=NS(=O)(=O)c3ccccc32)CC1)c1cccc(Br)c1,-2.8%,-11%,0%,/
COc1ccccc1C(=O)C1CCCN(C(=O)c2ccccn2)C1 (configuration not stated),0.8%,28%,-3%,-6
CCC1=C2CC[C@H]3C(=O)N(C)C(=O)[C@H]3[C@H]2[C@@]2(Cc3ccccc3)C(=NCCOC)OC(=O)N2C1=O,4.7%,-8%,2%,0&3
COCCN(C(=O)COC(=O)c1ccc(C)o1)c1c(N)n(Cc2ccccc2)c(=O)[nH]c1=O,-3.1%,-10%,/,/
Cc1ccc(OCC(=O)NNC(=O)C2CCN(c3ncnc4sc(C)c(C)c34)CC2)cc1,-3.0%,-6%,/,/
CCOC(=O)c1c(-c2ccc(C)cc2)csc1NC(=O)C1CCCO1 (configuration not stated),-0.1%,-14%,5%,-8
O=[N+]([O-])c1ccc(/C=N/N2CCCCC2)cc1,-0.4%,27%,-80%,/
CCn1c(CCC(=O)O)nc2cc(S(=O)(=O)N(C)C)ccc21,4.9%,1%,0%,-6
Cc1cc(=O)oc2cc(OC(=O)CCN3C(=O)c4ccccc4C3=O)ccc12,?,-17%,-11%,?
CC(=O)Nc1cccc(NS(=O)(=O)c2cccc3nsnc23)c1,3.3%,-5%,-6%,0
CCOc1ccc(C(=O)NCC(=O)OCC(=O)Nc2ccc(C)c(S(=O)(=O)N(C)C)c2)cc1,-0.2%,1%,-2%,-28
CC(=O)N1CCc2[nH]c3ccc(C)cc3c2C1,?,?,-3%,/
CC(=O)c1cccc(NC(=O)C(C)OC(=O)c2ccc(-n3cnnn3)cc2)c1 (configuration not stated),1.2%,15%,/,/
O=C(CSc1ccc(-c2ccccn2)nn1)N1CCCC1,-1.4%,0%,-12%,0
Cc1nnc(C)c2c(C)n(C(C)c3ccccc3)c(C)c12 (configuration not stated),?,-27%,-7%,-18
CS(=O)(=O)N(CC(=O)N1CCCCC1)c1ccc2c(c1)OCO2,1.3%,12%,-3%,-1
Cc1nc2ccc(NS(=O)(=O)c3ccc(F)cc3F)cc2s1,3.4%,-11%,/,/
O=C(c1nc2ccc(Cl)cn2c1CN1CCC(O)CC1)N1CCc2ccccc2C1,-0.5%,16%,-14%,/
Cc1ccc(S(=O)(=O)N2CCN(C(=O)C3CCCCC3)CC2)cc1,1.1%,4%,1%,0
O=C(O)CSc1ncnc2sc3c(c12)CCCC3,-5.5%,-27%,14%,9
COc1ccc(NC(=O)CSCC(=O)N(C)Cc2cccc(OC)c2OC)cc1,-5.1%,0%,/,/
COc1cccc(-c2ccc(C#N)c(=O)[nH]2)c1,0.9%,0%,4%,?
C=CCN(c1ccccc1)S(=O)(=O)c1ccc(Cl)c(C(=O)OCC(=O)c2[nH]c(C)c(C(C)=O)c2C)c1,-2.5%,5%,1%,0
COC(=O)CSc1nnc(CNC(=O)c2ccccc2F)n1-c1ccc(F)cc1,7.1%,6%,-1%,-3
O=Nc1c(O)[nH]c2ccc(Cl)c(Cl)c12,2.3%,10%,/,/

# The listing continues.
structure,Rango complex inh,Rango release inh,miR-21 FLuc,GLA inh pH 4.5
Cc1ccc(C(=O)c2ccc(O)cc2)cc1C,2.9%,14%,-37%,-11
CCOC(=O)c1c(NC(=O)COC(=O)c2ccccn2)sc(C)c1C,0.2%,1%,/,/
CSCC[C@H](NC(=O)NCc1ccc(F)cc1)C(=O)O,-1.3%,10%,-7%,6
Cc1ccc(S(=O)(=O)N2CCN(c3nc(C(C)C)c4c(c3C#N)CC(C)(C)OC4)CC2)cc1,-1.3%,1%,-6%,-7
COc1ccc(C(=O)N/C(=C\c2cn(S(=O)(=O)N(C)C)c3ccccc23)C(=O)NCCCn2ccnc2)cc1,10%,26%,-1%&-1%,/
O=C(NCc1ccc(F)cc1)c1c2c(nc3ccccc13)CCC2,-3.4%,-18%,-33%,0
CC(=O)Nc1ccc(N/C(C)=C/C(=O)c2cccnc2)cc1,-2.1%,14%,-2%,-3
CCCCC(=O)NCc1ccccc1Cl,-2.7%,7%,-20%,5
Cc1ccc(C(=O)OCC(=O)NCCC2=CCCCC2)s1,7.0%,-23%,-5%,6
Cc1cccc(-[n+]2c(-c3cccc(Br)c3)[nH]c3nc4ccccc4nc32)c1,-0.4%,-13%,1%,-3
CC(C)(C)c1ccc(C(=O)NCCC(=O)NCc2ccco2)cc1,-0.1%,-7%,?,/
NC1=NC(=O)C(Cc2cccc(Cl)c2)S1 (configuration not stated),-1.4%,1%,-11%,0
CSCCC(NC(=O)CCNC(=O)c1ccccc1Cl)c1nc2ccccc2[nH]1 (configuration not stated),0.1%,-9%,/,/
O=C(NCCC(=O)N1CCN(c2ccccn2)CC1)c1ccc(Br)cc1,0.5%,-4%,/,/
CCC(CC)NCc1ccc2c(c1)c1ccccc1n2CC,0.0%,-4%,28%,-5
Cc1nc2ncnn2c(C)c1CCC(=O)NCc1ccccc1,0.4%,-1%,-1%,-20
CCN(C[C@H]1N[C@@](C)(C(=O)OC)[C@H]2C(=O)N(Cc3ccccc3)C(=O)[C@@H]12)S(=O)(=O)c1ccc(C)cc1,-0.4%,-2%,/,/
COc1ccc(Nc2ncnc3ccc(C)cc23)cc1,?,-4%,11%,/

# Only part of the results is shown; count on the stated rates, not on these rows.
